Source: PubChem (several laboratories)
eIF4H inh: inhibitors of RNA binding by human eIF4H; inhibition, % at 35 µM; eIF4H fluorescence polarization binding assay; Q15056; 290,000 compounds, 0.94% hits;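 active = 50% or more with normal probe brightness, or confirmed in later tests; inconclusive = above 50% with abnormal brightness, or retests that disagree; inactive = below 50% or failed in later tests; about a fifth of its hits are not listed in these tables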;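 also: calls also rest on retests at 20 µM and on dose response follow-up; 0% = protein and probe with vehicle and 100% = probe without protein; strong numbers were not always called active; many hits fall short of the cut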
Rce1 inh: inhibitors of yeast Ras-converting enzyme | Q03530 | yeast membranes, quenched prenylated peptide cleavage fluorescence | calls only | 290,000 compounds, 0.27% hits | AID 2563;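 active = fall in fluorescence gain of 50% or more versus controls, with final raw signal at or below 3038400; inconclusive = same 50% fall but final raw signal above 3038400; inactive = fall in fluorescence gain under 50%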;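 also: plate controls were neutral control wells for no effect and wells lacking membranes for full effect; tested at 10 µM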
Env fusion inh: blocks HIV Env-driven cell-cell fusion; HeLa-JRFL Env/CEM21 cell fusion, luciferase; inhibition, % at 12.3 µM; 360,000 compounds, 1.1% hits; AID 651610;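 active = mean replicate inhibition score of at least 50 and every replicate individually at or above 50; inconclusive = only one of the two criteria met; inactive = mean below 50 and not all replicates reaching 50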;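 also: 0% = plate neutral controls and 100% = maraviroc near 300 nM; one replicate is shown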
CSC inhib: cancer stem cell inhibition; cancer stem cell-like cells viability, luminescence; inhibition, % at 7.5 µM; 300,000 compounds, 1.1% hits; AID 2717;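 active = mean at 75% or more and at least half the replicates too; inconclusive = mean and replicates disagree; tested in HMLE shEcad cells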;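 also: 0% = median of negative and 100% = median of positive control wells; the first replicate is given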
PABP FP inh: PABP-poly(A) binding inhibition. P11940. PABP-poly(A) RNA binding, fluorescence polarization. inhibition, % at 35 µM. 290,000 compounds, 1% hits. AID 2014;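 active = 50% or more with normal probe brightness, or confirmed in later tests; inconclusive = above 50% with abnormal brightness, or retests that disagree; inactive = below 50% or failed in later tests; about a fifth of its hits are not listed in these tables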;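 also: calls also rest on retests at 20 µM and on dose response follow-up; controls were probe without protein and protein plus probe with vehicle; some compounds called inactive have numbers as strong as hits; many hits fall short of the cut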
Target sequence (P11940 whole entry, looked up): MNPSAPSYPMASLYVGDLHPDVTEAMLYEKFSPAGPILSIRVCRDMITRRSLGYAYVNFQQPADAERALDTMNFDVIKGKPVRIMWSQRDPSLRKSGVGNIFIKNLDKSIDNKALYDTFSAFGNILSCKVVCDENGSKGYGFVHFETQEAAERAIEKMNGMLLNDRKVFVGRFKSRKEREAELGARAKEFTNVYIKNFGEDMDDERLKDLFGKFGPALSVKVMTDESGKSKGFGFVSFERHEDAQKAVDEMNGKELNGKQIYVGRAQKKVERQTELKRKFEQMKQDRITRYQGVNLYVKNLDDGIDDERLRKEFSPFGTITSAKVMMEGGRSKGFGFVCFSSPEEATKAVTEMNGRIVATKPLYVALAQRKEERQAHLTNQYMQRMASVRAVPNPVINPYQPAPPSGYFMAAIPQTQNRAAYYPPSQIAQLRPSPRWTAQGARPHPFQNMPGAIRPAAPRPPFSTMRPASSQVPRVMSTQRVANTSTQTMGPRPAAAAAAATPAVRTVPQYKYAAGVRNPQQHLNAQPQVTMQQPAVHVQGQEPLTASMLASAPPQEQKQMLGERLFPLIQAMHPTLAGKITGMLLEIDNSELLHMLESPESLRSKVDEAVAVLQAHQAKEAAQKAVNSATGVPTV
UUG fidelity: modulators of start codon recognition fidelity in yeast. AID 602363. S. cerevisiae UUG-firefly luciferase reporter, luminescence/redox ratio. 350,000 compounds, 0.13% hits. activity score, % at 18.7 µM;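 active = replicate mean at a twofold rise or more, about +100% in these data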;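 also: firefly luciferase made from a UUG start codon reports start codon fidelity; reporter light over untreated wells divided by growth signal over untreated wells; some hits fall short of that in this replicate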
MT1-MMP act inh: blocks activation of human MT1-MMP | GFP/RFP ratio change, % at 20 µM | 360,000 compounds, 0.061% hits | HT1080 RFP-PRO-GFP cells, GFP/RFP ratio fluorescence, overnight; percent of plate control window, DMSO zero | P50281 | AID 651647;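 active = GFP/RFP ratio change of at least 30% with cell ATP level not reduced by more than half and red fluorescence within 50% of control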; also: strong numbers were not always called active
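Test system: HT1080 RFP-PRO-GFP cells; Benchmarks: DMSO and RFP-L50D-GFP cell wells; Timing: cells overnight before dosing, compound overnight, 37 °C, 5% CO2; Compound: one 20 µM compound dose with 1% DMSO; Read-out: GFP/RFP fluorescence ratio.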
MT1-MMP act inh RFP: also measured in MT1-MMP act inh; calls as there; RFP signal change, %; measured here: RFP expression control read;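 0 = vehicle wells; hits needed this value within 50% of zero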
* hit, by the source's call.

CC1=C(C(=O)N(C)C)CC(CC(=O)NC(c2ccccc2)c2ccccc2)C(=O)N1Cc1ccccc1 (centres undefined) was read as Env fusion inh -1, UUG fidelity 1, MT1-MMP act inh -1 and MT1-MMP act inh RFP 0.
For CCOC(=O)N1CCC(N2Cc3cccc(C(=O)Nc4c(C)cccc4CC)c3C2=O)CC1 the results were eIF4H inh -11, Rce1 inh inactive, Env fusion inh 11, CSC inhib -3, PABP FP inh -4, UUG fidelity 4, MT1-MMP act inh 0 and MT1-MMP act inh RFP -1.
`CC(=O)c1[nH]c(C)c(C(=O)N2CCCC(Nc3cccc(F)c3)C2)c1C` (centres undefined) gave eIF4H inh 8, Rce1 inh inactive, Env fusion inh -2, CSC inhib -7, PABP FP inh 8, UUG fidelity 4, MT1-MMP act inh -1 and MT1-MMP act inh RFP -3.
Cn1c(-c2cccc(Br)c2)cnc1NCc1ccccc1O was read as eIF4H inh -3, Rce1 inh inactive, Env fusion inh 17, CSC inhib -2, PABP FP inh -7, UUG fidelity -8, MT1-MMP act inh 1 and MT1-MMP act inh RFP 0.
Screening CN(C(=O)COC(=O)c1ccc2c(c1)OCO2)C1CCS(=O)(=O)C1 (centres undefined) returned eIF4H inh 4, CSC inhib -2, PABP FP inh -4, UUG fidelity 3, MT1-MMP act inh 0 and MT1-MMP act inh RFP 2.
`CC(=O)C1=C(C)NC(SCSc2ccccc2)=C(C#N)C1c1cccnc1` (centres undefined) gave eIF4H inh 3, Rce1 inh inactive, CSC inhib 23 and PABP FP inh 26.
For Cc1onc(-c2ccccc2)c1C(=O)NCC1CCN(C(=O)c2c(-c3ccccc3)noc2C)CC1 the results were eIF4H inh -2, Rce1 inh inactive, Env fusion inh -156, CSC inhib 2, PABP FP inh -2, UUG fidelity -4, MT1-MMP act inh 5 and MT1-MMP act inh RFP -3.
Cc1ccc(CN2CCN(C3CSCCSC3)CC2CCO)cc1 (centres undefined) was read as eIF4H inh 3, Rce1 inh inactive, Env fusion inh 2, CSC inhib -2, PABP FP inh -2, UUG fidelity -14, MT1-MMP act inh -3 and MT1-MMP act inh RFP -3.
`O=C(C1CCC(CNc2c(N3CCCC3)c(=O)c2=O)CC1)N1CCc2ccccc21` (centres undefined) gave eIF4H inh -9, Rce1 inh inactive, Env fusion inh 8, CSC inhib 7, PABP FP inh 0, UUG fidelity -3, MT1-MMP act inh 9 and MT1-MMP act inh RFP 4.
`O=c1c2ccccc2n2c(-c3ccc(C(F)(F)F)cc3)nnc2n1Cc1ccccc1` gave eIF4H inh 4, Rce1 inh inactive, Env fusion inh 17, CSC inhib 4, PABP FP inh 17, MT1-MMP act inh 3 and MT1-MMP act inh RFP -6.
COc1ccc(CN2CCN(Cc3ccc(C)cc3)CC2)c(OC)c1 was read as eIF4H inh 11, Rce1 inh inactive, Env fusion inh inconclusive, CSC inhib 16, PABP FP inh 12, UUG fidelity -13, MT1-MMP act inh 2 and MT1-MMP act inh RFP 5.
CC(C)(C)NC(=O)N1CCCC(C(=O)c2cccc(Cl)c2)C1 (centres undefined) was read as eIF4H inh -4, Rce1 inh inactive, Env fusion inh 4, CSC inhib -14, PABP FP inh -9, MT1-MMP act inh -2 and MT1-MMP act inh RFP 3.
COc1ccc(CC(=O)OCC(=O)N2CCCC(C)C2)cc1 (centres undefined) was read as eIF4H inh -1, Rce1 inh inactive, Env fusion inh -14, CSC inhib -6, PABP FP inh 8, UUG fidelity -8, MT1-MMP act inh 0 and MT1-MMP act inh RFP 1.
Cc1ccc(O)c(C(=O)c2cnc3c(c2)CN(C)C(=O)N3)c1 was read as eIF4H inh -2, Rce1 inh inactive, CSC inhib 21, PABP FP inh 1, MT1-MMP act inh -5 and MT1-MMP act inh RFP -4.
For CSc1nc2c(ccc3ccccc32)o1 the results were eIF4H inh 5, Rce1 inh inactive, Env fusion inh -194, CSC inhib -1, PABP FP inh -9, UUG fidelity -11, MT1-MMP act inh 0 and MT1-MMP act inh RFP 2.
Screening O=C(NC1CCCCC1)c1ccc2c(c1)S(=O)(=O)c1ccccc1C2=O returned Rce1 inh inactive, Env fusion inh -22, CSC inhib 4, UUG fidelity -7, MT1-MMP act inh -3 and MT1-MMP act inh RFP -1.
Cc1cc2nsnc2c(S(=O)(=O)N2CCN(C)CC2)c1C was read as eIF4H inh 5, Rce1 inh inactive, Env fusion inh -1, CSC inhib 16, PABP FP inh 11, UUG fidelity -10, MT1-MMP act inh 1 and MT1-MMP act inh RFP 4.
O=C(Nc1ccccc1)OC1CCS(=O)(=O)C1 (centres undefined) was read as eIF4H inh -8, Rce1 inh inactive, Env fusion inh 1, CSC inhib -6, PABP FP inh -2, MT1-MMP act inh 3 and MT1-MMP act inh RFP 2.
`CCCP(=O)(CCC)CCP(=O)(c1ccccc1)c1ccccc1` gave eIF4H inh -12, Rce1 inh inactive, Env fusion inh 9, PABP FP inh -3, MT1-MMP act inh -7 and MT1-MMP act inh RFP 0.
`CCN(CC)CCCNC(=O)c1oc2ccc3c(c2c1C)C(O)CC(C)(C)O3` (centres undefined) gave eIF4H inh -3, Rce1 inh inactive, Env fusion inh -6, CSC inhib -2, PABP FP inh -7, UUG fidelity -18, MT1-MMP act inh 0 and MT1-MMP act inh RFP 0.

Sorted by SMILES length (smallest number first): some entries from above.
Cc1cc2nsnc2c(S(=O)(=O)N2CCN(C)CC2)c1C was read as eIF4H inh 5, Rce1 inh inactive, Env fusion inh -1, CSC inhib 16, PABP FP inh 11, UUG fidelity -10, MT1-MMP act inh 1 and MT1-MMP act inh RFP 4.
CC(C)(C)NC(=O)N1CCCC(C(=O)c2cccc(Cl)c2)C1 (centres undefined) was read as eIF4H inh -4, Rce1 inh inactive, Env fusion inh 4, CSC inhib -14, PABP FP inh -9, MT1-MMP act inh -2 and MT1-MMP act inh RFP 3.
`CC(=O)c1[nH]c(C)c(C(=O)N2CCCC(Nc3cccc(F)c3)C2)c1C` (centres undefined) gave eIF4H inh 8, Rce1 inh inactive, Env fusion inh -2, CSC inhib -7, PABP FP inh 8, UUG fidelity 4, MT1-MMP act inh -1 and MT1-MMP act inh RFP -3.
`O=c1c2ccccc2n2c(-c3ccc(C(F)(F)F)cc3)nnc2n1Cc1ccccc1` gave eIF4H inh 4, Rce1 inh inactive, Env fusion inh 17, CSC inhib 4, PABP FP inh 17, MT1-MMP act inh 3 and MT1-MMP act inh RFP -6.
For CCOC(=O)N1CCC(N2Cc3cccc(C(=O)Nc4c(C)cccc4CC)c3C2=O)CC1 the results were eIF4H inh -11, Rce1 inh inactive, Env fusion inh 11, CSC inhib -3, PABP FP inh -4, UUG fidelity 4, MT1-MMP act inh 0 and MT1-MMP act inh RFP -1.

Following part:
`COc1cc2oc(=O)cc(CN3CCN(c4ccc(Cl)c(Cl)c4)CC3)c2cc1Cl` gave Env fusion inh -39, UUG fidelity -17, MT1-MMP act inh 3 and MT1-MMP act inh RFP -7.
For CCCN1C(=O)C(O)(C2COC(C)(C)CC2=O)c2ccccc21 (centres undefined) the results were eIF4H inh 2, Rce1 inh inactive, Env fusion inh -19, CSC inhib 9, PABP FP inh 0, UUG fidelity -11, MT1-MMP act inh 0 and MT1-MMP act inh RFP 2.
S=C(Nc1cccc2ccccc12)N1CCN(c2ncccn2)CC1 was read as eIF4H inh -12, Rce1 inh inactive, CSC inhib -6, PABP FP inh -12, UUG fidelity -14, MT1-MMP act inh 7 and MT1-MMP act inh RFP 2.
For COc1ccc(NC(=O)/C(=C\c2ccc(OC)c(OC)c2)NC(=O)c2ccco2)cc1 the results were eIF4H inh 0, Rce1 inh inactive, Env fusion inh 6, CSC inhib -3, PABP FP inh -1, UUG fidelity -5, MT1-MMP act inh -1 and MT1-MMP act inh RFP 0.
`Cc1nc(=O)c(-c2ccccc2)c(C)n1-c1ccc(S(N)(=O)=O)cc1` gave eIF4H inh -4, Rce1 inh inactive, CSC inhib -6, PABP FP inh 6, MT1-MMP act inh 2 and MT1-MMP act inh RFP -2.
Screening N#Cc1cc(Oc2cccc3cccnc23)c(-n2nnc3ccccc32)cc1C#N returned eIF4H inh inconclusive, Rce1 inh inactive, CSC inhib 5, PABP FP inh inconclusive, UUG fidelity -7, MT1-MMP act inh -59 and MT1-MMP act inh RFP -24.
`Cc1ccc(C)n1-c1ccc(C(=O)O)cc1` gave eIF4H inh 91*, Rce1 inh inactive, CSC inhib 1 and PABP FP inh 51*.
CCN(c1cc(C)cc(C)c1)S(=O)(=O)c1nnc(NC(=O)C(C)C)s1 was read as eIF4H inh -7, Rce1 inh inactive, Env fusion inh 11, CSC inhib 1, PABP FP inh -4, UUG fidelity -8, MT1-MMP act inh -1 and MT1-MMP act inh RFP -1.
Screening CCCCNC(=O)C1(C)CCCCN1C(=O)c1c(F)ccc(C)c1F (centres undefined) returned Env fusion inh -19, UUG fidelity -7, MT1-MMP act inh -5 and MT1-MMP act inh RFP -6.
For CCOC(=O)c1[nH]c(C)c(C(=O)OCC(=O)NC2CCS(=O)(=O)C2)c1C (centres undefined) the results were eIF4H inh 10, Rce1 inh inactive, Env fusion inh -4, CSC inhib -9, PABP FP inh 9, UUG fidelity -14, MT1-MMP act inh -2 and MT1-MMP act inh RFP 1.
For Cc1cc(C(F)(F)F)nn1CC(=O)Nc1ccc(Br)c2cccnc12 the results were eIF4H inh 4, Rce1 inh inactive, Env fusion inh 16, CSC inhib -3, PABP FP inh -5, MT1-MMP act inh 2 and MT1-MMP act inh RFP -1.
`Cc1ccc(NC(=O)N2CCN(C(=O)C3CCCO3)CC2)cc1` (centres undefined) gave eIF4H inh -13, Rce1 inh inactive, Env fusion inh -28, CSC inhib -5, PABP FP inh 1, UUG fidelity -1, MT1-MMP act inh 6 and MT1-MMP act inh RFP 5.
Screening CCCCNC(=O)CCNC(=O)c1ccc(C(C)(C)C)cc1 returned eIF4H inh 7, Rce1 inh inactive, Env fusion inh 24, CSC inhib 2, PABP FP inh 4, UUG fidelity 9, MT1-MMP act inh 0 and MT1-MMP act inh RFP 4.
Screening COc1ccc(-c2csc(NC(=O)CS(=O)(=O)c3ccccc3)n2)cc1 returned Rce1 inh inactive, Env fusion inh 1, CSC inhib -3, UUG fidelity 13, MT1-MMP act inh 1 and MT1-MMP act inh RFP -5.
`CCC(=O)c1ccc(OCc2ccc(C#N)cc2)cc1` gave eIF4H inh -3, Rce1 inh inactive, Env fusion inh -15, CSC inhib 13, PABP FP inh -11, MT1-MMP act inh 2 and MT1-MMP act inh RFP -3.
COc1ccc(C(=O)N(Cc2nc(-c3ccc(C)cc3)no2)C2CCCCC2)cc1OC was read as eIF4H inh 11, Rce1 inh inactive, CSC inhib -5, PABP FP inh 2, UUG fidelity 12, MT1-MMP act inh 0 and MT1-MMP act inh RFP -9.
For Cc1ccc(-n2c(C)nc3c(cnn3-c3ccccc3Cl)c2=O)cc1C the results were eIF4H inh -1, Rce1 inh inactive, Env fusion inh 9, CSC inhib -11, PABP FP inh -5, UUG fidelity -11, MT1-MMP act inh 1 and MT1-MMP act inh RFP -6.
Screening CC1=C(C(=O)OC(C)C)C(c2ccc3c(c2)OCO3)NC(=O)N1 (centres undefined) returned eIF4H inh 1, Rce1 inh inactive, Env fusion inh 9, CSC inhib 12, PABP FP inh 6, UUG fidelity -20, MT1-MMP act inh -2 and MT1-MMP act inh RFP -4.
For CCOc1ccc(-c2cc(CCCC(=O)N3CCN(c4ccc(OC)cc4)CC3)no2)cc1 the results were eIF4H inh 9, Rce1 inh inactive, Env fusion inh 21, CSC inhib -12, PABP FP inh 8, UUG fidelity -28, MT1-MMP act inh 4 and MT1-MMP act inh RFP -11.
